HIV TAR-Tat: HIV-1 TAR-Tat binding disruption | z-score (test concentration not listed) | 0.6% of 100,000 active | HIV-1 TAR RNA, Tat peptide displacement FRET; active compounds read high | AID 1259389;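 also: score is relative to mean and SD of negative controls; some compounds called inactive have numbers as strong as hits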
CDC25B-CDK2 inh: human CDC25B-CDK2/CyclinA binding inhibition. z-score (no concentration beside the values). AID 1259370. HTRF CDC25B-CDK2/CyclinA binding, anti-His/anti-Flag; active compounds read high. P30305+P24941. 0.72% of 94,000 active;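 also: score is relative to mean and SD of negative controls; strong numbers were not always called active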
Starred values were filed as active, the others as inactive; . = not tested or not shown.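 The calls were made as follows: active = z-score from 3 up in half or more of its runs; inactive = the rest.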

Second line of a record – CDC25B-CDK2 inh | HIV TAR-Tat
- COc1cc(CNC2CC2)ccc1Oc1nnnn1-c1ccccc1
→ . | 1.66
- COc1ccc(NC(=O)NCc2cccn2C)c(OC)c1
→ . | 1.39
- COc1ccccc1-c1ccnc2c(-c3ccc(Br)cc3)c(C)nn12
→ -2.1 | 1.39
- CCOC(=O)c1noc2nc(C)nc(Nc3ccc(F)cc3)c12
→ . | 0.91
- Cc1ccc(NS(=O)(=O)c2cc(-c3n[nH]c(=O)c4c3CCCC4)ccc2C)cc1
→ -0.16 | 1.2
- Cn1c(C(=O)O)c(CC(=O)NCCC2=CCCCC2)c2ccccc21
→ 0.13 | .
- CCOC(=O)CNC(=O)N1[C@H](c2cccs2)[C@@H](C)C(=O)[C@@H](C)[C@@H]1c1cccs1
→ -0.96 | 0.7
- O=C1CCCc2cc(S(=O)(=O)N3CCC(C(=O)NC4CCCc5ccccc54)CC3)ccc2N1 (stereo not drawn)
→ . | -0.46
- CNCCNS(=O)(=O)c1ccc(N2C(=O)CC3(CCCC3)C2=O)c(Cl)c1
→ 4.88 | .
- COC(=O)c1c(C)oc2ccc(O)c(CN(C)C3CCN(C)CC3)c12
→ -4.16 | -1.47

Some of these compounds in order of molecular weight, descending:
Second line of a record – CDC25B-CDK2 inh | HIV TAR-Tat
- CCOC(=O)CNC(=O)N1[C@H](c2cccs2)[C@@H](C)C(=O)[C@@H](C)[C@@H]1c1cccs1
→ -0.96 | 0.7
- Cc1ccc(NS(=O)(=O)c2cc(-c3n[nH]c(=O)c4c3CCCC4)ccc2C)cc1
→ -0.16 | 1.2
- CNCCNS(=O)(=O)c1ccc(N2C(=O)CC3(CCCC3)C2=O)c(Cl)c1
→ 4.88 | .
- COc1ccccc1-c1ccnc2c(-c3ccc(Br)cc3)c(C)nn12
→ -2.1 | 1.39
- COC(=O)c1c(C)oc2ccc(O)c(CN(C)C3CCN(C)CC3)c12
→ -4.16 | -1.47
- COc1cc(CNC2CC2)ccc1Oc1nnnn1-c1ccccc1
→ . | 1.66
- CCOC(=O)c1noc2nc(C)nc(Nc3ccc(F)cc3)c12
→ . | 0.91

(continued)
Second line of a record – CDC25B-CDK2 inh | HIV TAR-Tat
- Cc1ccc(Cn2nc(C)c(NC(=O)c3nc4nc(C)cc(C(F)F)n4n3)c2C)cc1
→ -0.99 | -0.44
- O=C(CCc1nc(CN2CCN(S(=O)(=O)c3ccc(F)cc3)CC2)no1)N1CCCCC1
→ . | -0.05
- Cc1ccc(S(=O)(=O)N2CCOCC2)cc1-c1nnc2c3ccccc3c(C)nn12
→ -0.04 | .
- O=C(C1=C(O)C(=O)N(CCCN2CCOCC2)C1c1cccnc1)c1ccco1 (stereo not drawn)
→ -0.14 | -0.47
- COc1cc(N=Cc2ccccc2OC(=O)c2cc(OC)c(OC)c(OC)c2)c(OC)cc1Cl
→ -1.46 | .
- Cc1csc(NC(=O)NC2CC(=O)N(c3ccc(F)cc3)C2)n1 (stereo not drawn)
→ . | 0.58
- OCC(F)(F)C(F)(F)C(F)(F)C(F)(F)CO
→ -2.37 | .
- Cc1nc2cc(Cl)ccc2c(=O)n1CC1CCCO1 (stereo not drawn)
→ -1.82 | .
- CN1C(=O)C2CCCCN2c2ccc(C(=O)N3CCN(c4ccccn4)CC3)cc21 (stereo not drawn)
→ . | -0.86
- CCc1c(C)nc2nncn2c1NC1CC1
→ -1.93 | 0.6
- COc1cc(/C=N/NC(=O)c2cc(C)ccc2[N+](=O)[O-])cc(OC)c1OC
→ -0.81 | .
- COc1ccc(C2CC(=O)C3=C(C2)Nc2ccccc2NC3c2ccc(F)c(Br)c2)cc1 (stereo not drawn)
→ -0.18 | 1.24
- COCCNc1nc(N)c([N+](=O)[O-])c(NCc2ccco2)n1
→ . | 1.43
- O=C(Nc1nnc(COc2ccc(Cl)cc2)s1)c1ccco1
→ -4.88 | 2.18
- CCC(=O)N1CCc2cc(S(=O)(=O)NC(C(=O)N3CCCC(C)C3)C(C)C)ccc21 (stereo not drawn)
→ 0 | .
- COc1ccc(S(=O)(=O)Nc2ccc3c(c2)N(S(C)(=O)=O)CCC3)cc1OC
→ . | 2.16
- COCCn1c(-c2ccccc2)nc(=S)c2c1CC(C)(C)OC2
→ -0.17 | 1.55
- O=C(CCCc1nc(-c2cccs2)no1)Nc1nccs1
→ -0.65 | 0.75
- CCC1CCCCN1C(=O)Cn1c(C(=O)OC)cc2sccc21 (stereo not drawn)
→ -1.11 | 3.58
- CC(C)(C)c1ccc2oc(=O)n(C(=O)c3ccco3)c2c1
→ . | 0.41
- O=C(Nc1cccnc1)c1cc(=O)c2ccccc2o1
→ -1.8 | -0.89
- C=CCSc1nc2c(c(=O)[nH]1)C(c1cccnc1)C(C(=O)OC)=C(C)N2 (stereo not drawn)
→ -0.75 | -0.68
- Cc1ccc(-c2n[nH]c(=O)c3ccccc23)cc1S(=O)(=O)N(C)C
→ -0.3 | .
- CCCN1C(=O)C(O)(CC(=O)c2cccs2)c2ccccc21 (stereo not drawn)
→ -0.67 | .
- COc1cc(C(=O)O/N=C(\C)c2ccc(F)cc2)cc(OC)c1OC
→ -2.1 | .
- O=C1CCSc2ccc(S(=O)(=O)N3CCC(N4CCCCC4)CC3)cc2N1
→ . | -0.06
- COc1ccc(C=Nc2ccc(C(=O)O)cc2)cc1
→ -1.76 | .
- Cc1nnsc1C(=O)N(Cc1ccccc1)C(C)C
→ -0.55 | .
- CSc1ccc(-c2nc3cnccn3c2Nc2ccccc2)cc1
→ -0.98 | 0.13
- COc1ccc(NS(=O)(=O)c2ccc3c(c2)NC(=O)C(C)S3)cc1OC (stereo not drawn)
→ . | 1.29
- CN(C)CCCNc1nc(-c2ccc(Cl)cc2)nc2ccccc12
→ 0.75 | 0.07
- Cc1ccc(S(=O)(=O)N2CCc3cc(-c4ccsc4)ccc32)cc1
→ 1.23 | -0.56
- Cc1nc(CO/N=C(/N)c2ccc(C(F)(F)F)cc2)cs1
→ -1.88 | .
- Cc1ccc(S(=O)(=O)c2nnn(-c3ccc(Cl)cc3)c2C)cc1
→ 1.02 | 0.86
- CCN1CN(Cc2ccccc2)CNC1=S
→ 0.45 | .
- CCC(C)NC(=O)c1ccc(CNc2c(NC3CCCC3)c(=O)c2=O)cc1 (stereo not drawn)
→ -0.14 | -0.31
- Cc1nc2sc(C(c3cccc(Cl)c3)N3CCN(c4ccc(F)cc4)CC3)c(O)n2n1 (stereo not drawn)
→ -1.33 | .
- O=C(CSc1ccc2nnc(-c3cccc(F)c3)n2n1)NC1CCCCC1
→ 0.03 | .
- Cc1ncc(CO)c2cc(C(=O)c3ccc(F)cc3)c(=O)oc12
→ -2.58 | 2.19
- Cc1nc2c(C)cccn2c1C(Nc1ccc(F)cc1)c1ccccc1 (stereo not drawn)
→ -2.38 | 1.42
- Cc1c(-c2nnc(SCC(=O)Nc3ccc(Br)cc3)o2)nnn1-c1ccc(F)cc1
→ . | 0.42
- CCc1c(CN2CCN(c3ccc(Cl)cc3)CC2)csc1C
→ . | 0.77
- C=CCOC(=O)C1=C(C)Nc2nc(SCC=C)[nH]c(=O)c2C1c1ccccc1 (stereo not drawn)
→ -0.57 | 0.29
- C=CCSc1nnc2c(n1)OC(C)=Nc1ccc(Br)cc1-2
→ -0.04 | -2.17
- Cc1nc2nc(CNc3ccc(F)cc3)[nH]n2c(=O)c1C
→ 0.3 | -0.39
- CCOC(=O)c1noc2ncnc(N3CCC(C(N)=O)CC3)c12
→ . | 0.89
- COc1ccc(-c2noc(CSc3nnc(-c4ccc(Cl)cc4)n3C)n2)cc1
→ 0.62 | 2.11
- CC(=O)Nc1c(C(=O)N2CCN(C(=O)c3ccco3)CC2)oc2ccccc12
→ . | 0.08
- CCCN1CCN(c2cc3c(cc2F)c(=O)c(S(=O)(=O)c2ccc(CC)cc2)cn3CC)CC1
→ . | 0.26
- COc1ccc(-c2csc(-c3nc(-c4cccs4)cs3)n2)cc1
→ . | 0.54

Carrying on.
Second line of a record – CDC25B-CDK2 inh | HIV TAR-Tat
- Fc1ccc(-n2ncc3c(N4CCCC4)ncnc32)cc1
→ . | 0.96
- CC(=O)OC1C[C@H](n2cc(C)c(=O)[nH]c2=O)O[C@@H]1COS(=O)(=O)c1ccc(C)cc1 (stereo partly drawn)
→ 0.12 | .
- O=C(NCc1ccco1)Nc1ccc2nc(NS(=O)(=O)c3ccccc3)sc2c1
→ . | 2.23
- COc1cc(OC)cc(N2C(=O)Nc3ccccc3S2(=O)=O)c1
→ . | 1.67
- CC(=O)Nc1sccc1C#N
→ -0.8 | .
- Cc1ccc(-c2nnc3ccc(SC(C)C)nn23)cc1
→ -0.96 | .
- COc1ccc(N2CCN(C(=O)[C@H]3[C@@H]4C[C@@H]5[C@H]3C(=O)O[C@@H]5C4)CC2)cc1
→ -1.89 | 1.34
- O=C1c2ccccc2C(=O)N1CNc1ccc(C2CCCCC2)cc1
→ -0.84 | .
- O=C(O)c1ccc(N2C(=O)C3CC=CCC3C2=O)cc1Cl (stereo not drawn)
→ -0.07 | 0.28
- O=C(c1cccs1)N1CCC(c2ccncc2)CC1
→ . | 1.58
- O=C(CCCN1C(=O)C(c2ccccc2)Oc2cccnc21)N1CCc2ccccc21 (stereo not drawn)
→ . | 1.48
- COc1cc(CN2CCN(Cc3cc(OC)c4c(c3)OCO4)CC2)cc(OC)c1OC
→ -1.28 | .
- CCCN1C(=O)c2cc3occc3n2CC1(C)C(=O)NC1CCCCC1 (stereo not drawn)
→ . | 3.72
- Cn1nc(-c2ccccc2)c(-c2ccccc2)c(C(=O)NCc2ccc3c(c2)OCO3)c1=O
→ -1.67 | 1.51
- CCOC(=O)C1CCN(C(=O)C2CCN(c3ncnc4onc(C)c34)CC2)CC1
→ . | 1.59
- CC(=O)Nc1ccc(Oc2c(F)c(F)c(Oc3ccc(NC(C)=O)cc3)c(F)c2F)cc1
→ -0.18 | .
- Cn1c2c(c(=O)n(C)c1=O)C(c1cccc(F)c1)C1C(=O)c3ccccc3C1=N2 (stereo not drawn)
→ -1.68 | -6.34
- COc1ccc(S(=O)(=O)N2CCc3cc4ccc(C)cc4nc32)cc1
→ -0.09 | -3.51
- CCC(SC1=Nc2ccccc2C2=NC(C)C(=O)N12)C(=O)N1CCc2ccccc21 (stereo not drawn)
→ . | 0.17
- Fc1cccc(/C=N/N=C/c2cccc(F)c2)c1
→ -2.34 | .
- COc1ccc(Br)cc1C1CC(=O)N2CN(Cc3ccccc3)CSC2=C1C#N (stereo not drawn)
→ 3.18* | -1.1
- FC(F)(F)c1ccc(CN2CCN(Cc3ccc4c(c3)OCO4)CC2)cc1
→ 0.47 | .
- Cc1nc2ccc(NC(=O)CSc3nnc(-c4cc5ccccc5o4)n3C)cc2[nH]1
→ . | 2.51
- CCOC(=O)C1=C(C)Nc2nc3ccccc3n2C1c1sccc1C (stereo not drawn)
→ -1.78 | 1.2
- Cc1ccccc1-c1nc2c(c(=O)[nH]1)Cc1cc(F)ccc1O2
→ -1.07 | 0.54
- Cn1cccc1CNCc1ccccn1
→ -0.92 | -0.75
- NC(=O)C1CCCc2c1[nH]c1ccc(Cl)cc21 (stereo not drawn)
→ . | 0.71
- CO/N=C1\CN(c2nc3c(cc2F)c(=O)c(C(=O)O)cn3C2CC2)CC1CN (stereo not drawn)
→ . | 1.42
- O=C(CN1CCN(c2ccc(C(F)(F)F)cn2)CC1)c1cc2ccccc2o1
→ -1.38 | .
- CC(C)CC1N=C2c3ccccc3N=C(SCC(=O)Nc3ccc(F)cc3)N2C1=O (stereo not drawn)
→ . | 0.7
- CCOC(=O)C1=C(C)Nc2nc(SCC(C)C)nn2C1c1ccc(Cl)cc1 (stereo not drawn)
→ -1.52 | 0.46
- CCC1=NN(C(=O)c2ccc(F)cc2)C(O)(C(F)(F)F)C1 (stereo not drawn)
→ 0.27 | .
- O=C(c1ccc2cccc(O)c2n1)N1CCN(c2ccc(F)cc2)CC1
→ . | 0.99
- CCSCCOC(=O)C1=C(C)NC(=O)CC1c1cc2c(cc1Br)OCO2 (stereo not drawn)
→ -0.9 | 1.65
- O=C(c1ccc2c(c1)OCO2)N1CCN(c2ccccn2)CC1
→ -0.06 | .
- COc1ccc2nc(NC(=O)Nc3cn(CC(C)C)c(=O)c4ccccc34)sc2c1
→ . | -0.79
- O=C(CCCSc1nc2sc3c(c2c(=O)[nH]1)CCCC3)NCCCO
→ -1.72 | .
- Cc1ccc(N2Cc3ccncc3C2=O)c(Cl)c1
→ -2.38 | 1.2
- Cn1c(SCc2cc(=O)c3cc(F)ccc3[nH]2)nnc1-c1cccs1
→ . | 1.24
- CCn1c(=O)c2c(nc3n2CCN3c2ccc(F)cc2)n(C)c1=O
→ . | 0.12
- CC(C)Cc1nn2c(=O)cc(COC(=O)c3ccc(F)cc3)nc2s1
→ . | -0.52
- Cn1cnc(S(=O)(=O)N2CC(=O)Nc3ccccc32)c1
→ . | 0.61
- Cc1nc(C)c(-c2csc(Nc3ccc(O)cc3)n2)s1
→ -0.86 | -0.55
- CC(C)c1ccc(OCC(O)Cn2c[n+](C)c3ccccc32)cc1 (stereo not drawn)
→ -1.28 | -0.87
- CC1(C)CN(CC(=O)N2CCCC2)c2ccc(S(=O)(=O)N3CCc4ccccc4C3)cc21
→ . | 1.7
- CC(C)(C)c1ccc(C(=O)Nc2cnc3sc4c(n3c2=O)CCC(C(C)(C)C)C4)cc1 (stereo not drawn)
→ -1.61 | 2.83
- O=C(COCc1cc(-c2ccc3c(c2)OCO3)on1)NCc1ccco1
→ . | -0.75
- NC(=O)C1CCN(C(=O)CN2C(=O)c3cccc4cccc2c34)CC1
→ -0.3 | 1.56
- COC(=O)c1cc(=O)n2c(c1C(=O)c1cccs1)SCC2
→ -0.08 | .
- COc1cccc(NC(=O)c2cc(C)n(Cc3cccs3)c2C)c1
→ -0.31 | .
- CCCNC(=O)c1cc2oc3ccccc3c2n1C
→ -1.94 | 0.61
- CC1CCCN(C(=O)Cn2ncc3c([nH]c4ccccc43)c2=O)C1 (stereo not drawn)
→ . | -0.14
- CCCCCc1nn2cc(-c3cccc(OC)c3)nc2s1
→ 0.99 | 0.95

Screening results from PubChem BioAssay.
